# Screening results as filed in PubChem BioAssay.
# FGF22 binding – binders of recombinant human FGF22 by thermal shift; hit rate 1.5% among 340,000; SYPRO orange fluorescence; percent of sucrose octasulfate shift, DMSO zero; calls only at 9.99 µM; Q9HCT0;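 active means melting point raised past a set limit in the mean and every replicate; three in four hits are not shown here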
# Target sequence (Q9HCT0 whole entry, looked up): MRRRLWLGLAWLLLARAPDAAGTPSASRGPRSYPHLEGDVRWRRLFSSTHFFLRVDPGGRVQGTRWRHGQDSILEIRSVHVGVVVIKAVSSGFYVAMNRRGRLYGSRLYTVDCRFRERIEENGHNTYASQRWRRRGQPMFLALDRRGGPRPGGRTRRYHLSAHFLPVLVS
# Calls only; i = inactive.
SMILES,FGF22 binding
CCCNC(=O)C[C@@H]1C[C@H]2c3cc(NC(=O)c4cccnc4)ccc3O[C@H]2[C@@H](CO)O1,i
O=C(c1ccncc1)N1C[C@H]2[C@@H](c3ccccc31)[C@H](CO)N2Cc1ccc(F)cc1,i
CCCNC(=O)[C@H]1[C@H](CO)[C@H]2Cn3c(ccc(-c4cccc(F)c4)c3=O)[C@H]2N1C(C)=O,i
C[C@H](CO)N1C[C@H](C)[C@H](CN(C)Cc2ccncc2)Oc2cc(C3=CCCCC3)ccc2S1(=O)=O,i
C[C@H](CO)N1C[C@H](C)[C@H](CN(C)C(=O)Nc2ccccc2)Oc2ncc(C#CC3CCCC3)cc2C1=O,i
CCC(=O)Nc1ccc2c(c1)C(=O)N(C)C[C@@H](OC)[C@@H](C)CN(C(=O)c1ccncc1)[C@H](C)CO2,i
CC(C)CC#Cc1ccc([C@H]2[C@@H](CO)N3C(=O)CN(C(=O)c4cccc(F)c4)C[C@@H]23)cc1,i
C[C@H]1CN([C@@H](C)CO)C(=O)c2cc(C#Cc3ccccc3)cnc2O[C@@H]1CN(C)Cc1ccccn1,i
C/C=C/c1cnc2c(c1)C(=O)N([C@@H](C)CO)C[C@@H](C)[C@H](CN(C)C(=O)NCCC)O2,i
O=C(C[C@H]1C[C@H]2c3cc(NC(=O)NC4CCCCC4)ccc3O[C@H]2[C@@H](CO)O1)NCCc1ccccc1,i
CCN1[C@@H]2c3ccc(-c4ccccc4)c(=O)n3C[C@H]1[C@H](CO)[C@H]2C(=O)NCCCN1CCOCC1,i
COc1ccc(NC(=O)N2CC[C@@H]3[C@@H](CO)N(C)c4ccc(Br)cc4[C@@H]32)cc1,i
CN(C)C(=O)c1ccc(-c2ccccc2[C@H]2[C@@H](CO)N(C(=O)C3CCC3)[C@H]2C#N)cc1,i
CC(=O)N1[C@@H]2c3cccc(=O)n3C[C@@H]2[C@@H](CO)[C@@H]1C(=O)NCc1ccccc1F,i
Cc1ccc(S(=O)(=O)Nc2ccc3c(c2)C(=O)N([C@H](C)CO)C[C@@H](C)[C@H](CN(C)Cc2ccncc2)OCCCC[C@@H](C)O3)cc1,i
C[C@H]1CN([C@@H](C)CO)C(=O)Cc2cc(NS(=O)(=O)c3cn(C)cn3)ccc2O[C@H]1CN(C)C(=O)NC1CCCCC1,i
CN(C)Cc1cn(CC[C@@H]2CC[C@@H](NC(=O)Cc3cccnc3)[C@H](CO)O2)nn1,i
C[C@@H]1CN([C@H](C)CO)C(=O)c2cc(NS(=O)(=O)c3cccs3)ccc2O[C@@H]1CN(C)C(=O)NC1CCCCC1,i
COC(=O)C[C@H]1CC[C@@H]2[C@H](COC[C@@H](O)CN2C(=O)Nc2ccccc2OC)O1,i
C[C@H](CO)N1C[C@H](C)[C@H](CN(C)C(=O)Nc2cccc3ccccc23)OCCCC[C@H](C)Oc2ccc(NC(=O)c3ccncc3)cc2C1=O,i
O=C(C[C@@H]1C=C[C@H](NS(=O)(=O)c2ccccc2)[C@@H](CO)O1)N1CCC(Cc2ccccc2)CC1,i
C[C@@H]1CN([C@@H](C)CO)S(=O)(=O)c2ccc(-c3cccc(C(=O)N(C)C)c3)cc2O[C@H]1CN(C)Cc1ccc2c(c1)OCO2,i
CS(=O)(=O)Nc1ccc2c(c1)[C@@H]1C[C@@H](CC(=O)NCc3ccccc3)O[C@H](CO)[C@@H]1O2,i
CCC(=O)N1CCCCN2[C@H](C1)[C@@H](c1ccc(C#Cc3ccccc3F)cc1)[C@@H]2CO,i
COc1cccc(CN2[C@@H](CO)[C@@H](c3ccccc3)C23CN(C(=O)C2CCOCC2)C3)c1,i

# Part of the list above, bar-delimited:
Compound | FGF22 binding
CCCNC(=O)[C@H]1[C@H](CO)[C@H]2Cn3c(ccc(-c4cccc(F)c4)c3=O)[C@H]2N1C(C)=O | i
C[C@H](CO)N1C[C@H](C)[C@H](CN(C)Cc2ccncc2)Oc2cc(C3=CCCCC3)ccc2S1(=O)=O | i
C[C@H](CO)N1C[C@H](C)[C@H](CN(C)C(=O)Nc2ccccc2)Oc2ncc(C#CC3CCCC3)cc2C1=O | i
CCC(=O)Nc1ccc2c(c1)C(=O)N(C)C[C@@H](OC)[C@@H](C)CN(C(=O)c1ccncc1)[C@H](C)CO2 | i
CC(C)CC#Cc1ccc([C@H]2[C@@H](CO)N3C(=O)CN(C(=O)c4cccc(F)c4)C[C@@H]23)cc1 | i
C[C@H]1CN([C@@H](C)CO)C(=O)c2cc(C#Cc3ccccc3)cnc2O[C@@H]1CN(C)Cc1ccccn1 | i
C/C=C/c1cnc2c(c1)C(=O)N([C@@H](C)CO)C[C@@H](C)[C@H](CN(C)C(=O)NCCC)O2 | i
O=C(C[C@H]1C[C@H]2c3cc(NC(=O)NC4CCCCC4)ccc3O[C@H]2[C@@H](CO)O1)NCCc1ccccc1 | i
CCN1[C@@H]2c3ccc(-c4ccccc4)c(=O)n3C[C@H]1[C@H](CO)[C@H]2C(=O)NCCCN1CCOCC1 | i
COc1ccc(NC(=O)N2CC[C@@H]3[C@@H](CO)N(C)c4ccc(Br)cc4[C@@H]32)cc1 | i
CN(C)C(=O)c1ccc(-c2ccccc2[C@H]2[C@@H](CO)N(C(=O)C3CCC3)[C@H]2C#N)cc1 | i
CC(=O)N1[C@@H]2c3cccc(=O)n3C[C@@H]2[C@@H](CO)[C@@H]1C(=O)NCc1ccccc1F | i
Cc1ccc(S(=O)(=O)Nc2ccc3c(c2)C(=O)N([C@H](C)CO)C[C@@H](C)[C@H](CN(C)Cc2ccncc2)OCCCC[C@@H](C)O3)cc1 | i

# Continuation:
SMILES,FGF22 binding
Cc1ccc(S(=O)(=O)Nc2ccc3c(c2)C(=O)N([C@H](C)CO)C[C@@H](C)[C@H](CN(C)S(=O)(=O)c2c(C)noc2C)OCCCC[C@H](C)O3)cc1,i
CC(C)CC#Cc1ccc2c(c1)O[C@@H](CN(C)C(=O)CC1CC1)[C@H](C)CN([C@H](C)CO)S2(=O)=O,i
C[C@@H]1CCCCO[C@@H](CN(C)CC2CCCCC2)[C@@H](C)CN([C@@H](C)CO)C(=O)c2cc(NS(=O)(=O)c3ccc(F)cc3)ccc2O1,i
C[C@@H]1CN([C@@H](C)CO)C(=O)c2cc(NC(=O)Cc3cn(C)c4ccccc34)ccc2O[C@H]1CN(C)Cc1ccc(C(F)(F)F)cc1,i
O=C(CC1CC1)N[C@@H]1CC[C@@H](CCNS(=O)(=O)c2ccc(Cl)cc2)O[C@@H]1CO,i
COc1ccc2c3c([nH]c2c1)[C@@H](CO)N(Cc1ccncc1)CC31CCN(C(=O)c2cccnc2)CC1,i
COc1ccc(S(=O)(=O)Nc2ccc3c(c2)CC(=O)N([C@@H](C)CO)C[C@H](C)[C@H](CN(C)S(=O)(=O)c2ccc(OC)cc2)O3)cc1,i
COc1cc([N+](=O)[O-])c(OC)cc1Nc1ccccc1C(=O)O,i
Cc1noc(C)c1S(=O)(=O)N(C)C[C@H]1Oc2ccc(NS(=O)(=O)c3cn(C)cn3)cc2CC(=O)N([C@@H](C)CO)C[C@@H]1C,i
C[C@H](NC(=O)C[C@@H]1CC[C@@H]2[C@H](COC[C@H](O)CN2C(=O)Nc2cccc(Cl)c2)O1)c1ccccc1,i
CCN1[C@@H]2Cn3c(ccc(C4=CCCCC4)c3=O)[C@H]1[C@@H](C(=O)N1CCCCC1)[C@@H]2CO,i
C[C@H]1CCCCO[C@H](CN(C)C(=O)Cc2ccccc2)[C@@H](C)CN([C@@H](C)CO)C(=O)c2cc(NC(=O)Nc3ccc(F)cc3)ccc2O1,i
C[C@H]1CN([C@@H](C)CO)C(=O)Cc2cc(NC(=O)CCCCCC(=O)Nc3ccccc3N)ccc2O[C@H]1CN(C)C(=O)NC1CCCCC1,i
CCC(=O)N(C)C[C@H]1Oc2cc(-c3ccncc3)ccc2S(=O)(=O)N([C@@H](C)CO)C[C@@H]1C,i
COc1ccc2c3c(n(C)c2c1)[C@@H](CO)N(CC1CCOCC1)CC31CN(C(=O)Nc2ccccc2)C1,i
C[C@@H]1CN([C@@H](C)CO)C(=O)Cc2cc(NS(=O)(=O)c3ccc(F)cc3)ccc2O[C@H]1CN(C)S(=O)(=O)c1ccc(Cl)cc1,i
C[C@H]1CN([C@@H](C)CO)C(=O)c2cccc(NC(=O)Nc3ccc(F)cc3)c2O[C@@H]1CN(C)S(=O)(=O)c1ccccc1,i
O=C(C[C@@H]1CC[C@@H]2[C@H](COC[C@H](O)CN2C(=O)c2cccnc2)O1)Nc1ccc(-c2ccccc2)cc1,i
CCC(=O)N[C@H]1CC[C@H](CC(=O)NCC2CCCCC2)O[C@H]1CO,i
C[C@@H]1CN([C@@H](C)CO)C(=O)c2cc(C#CCc3ccccc3)cnc2O[C@@H]1CN(C)Cc1cccc(C(=O)O)c1,i
COCC(=O)N[C@H]1CC[C@H](CC(=O)NCc2ccc(Cl)cc2)O[C@@H]1CO,i
Cc1ccc(S(=O)(=O)Nc2cccc3c2O[C@H](CN(C)S(=O)(=O)c2cn(C)cn2)[C@@H](C)CN([C@@H](C)CO)C3=O)cc1,i
CC(C)CC#Cc1cnc2c(c1)C(=O)N([C@H](C)CO)C[C@H](C)[C@H](CN(C)C(=O)CCN1CCCCC1)O2,i
CCCN1[C@@H]2c3ccc(/C=C/c4ccccc4)c(=O)n3C[C@@H]2[C@@H](CO)[C@@H]1C(=O)N(C)C,i
Cc1noc(C)c1NC(=O)N(C)C[C@@H]1Oc2ccc(NC(=O)NC(C)C)cc2C(=O)N([C@H](C)CO)C[C@@H]1C,i
# (further entries)
SMILES,FGF22 binding
COCC(=O)N1[C@H](CO)[C@@H](c2ccccc2-c2cccc(F)c2)[C@@H]1C#N,i
O=C(C[C@@H]1CC[C@H](NS(=O)(=O)c2ccc(F)cc2)[C@H](CO)O1)NCCc1ccncc1,i
CN1C(=O)[C@@]2(O[C@H]3C=CC=CN3C3=C2C(=O)CCC3)c2cccc(Br)c21,i
COc1ccccc1C(=O)Nc1ccc2c(c1)C(=O)N(C)[C@@H]1CC[C@@H](CC(=O)NCc3ccc(Cl)c(Cl)c3)O[C@@H]1CO2,i
COC(=O)C[C@@H]1C[C@@H]2c3cc(N(C)C)ccc3O[C@@H]2[C@H](CO)O1,i
O=C(Cc1ccncc1)NCC[C@@H]1CC[C@H](NC(=O)Nc2cccc(F)c2)[C@H](CO)O1,i
C[C@@H]1CCCCO[C@H](CN(C)C(=O)Nc2cccc3ccccc23)[C@@H](C)CN([C@H](C)CO)C(=O)c2cc(NS(=O)(=O)c3cn(C)cn3)ccc2O1,i
CN1CCN(C(=O)C[C@@H]2CC[C@H]3[C@H](COc4ccc(NC(=O)c5ccc(F)c(F)c5)cc4C(=O)N3C)O2)CC1,i
C[C@H]1CN([C@@H](C)CO)C(=O)c2cc(-c3cccc(C#N)c3)cnc2O[C@@H]1CN(C)C(=O)c1cnccn1,i
C[C@@H]1CN([C@H](C)CO)C(=O)c2cc(C3=CCCC3)cnc2O[C@@H]1CN(C)C(=O)c1ccccc1,i
CCc1cnc(N2[C@@H](C#N)[C@H](c3ccccc3)[C@@H]2CO)s1,i
Cn1cnc(S(=O)(=O)N2CCCCN3[C@H](C2)[C@H](c2ccc(-c4ccccc4)cc2)[C@@H]3CO)c1,i
O=S(=O)(c1cccs1)N1CCCCN2[C@H](CO)[C@@H](c3ccc(/C=C/c4ccccc4)cc3)[C@@H]2C1,i
COc1ccc2c3c(n(C)c2c1)[C@@H](CO)N(C(=O)c1cccnc1)CC31CN(S(C)(=O)=O)C1,i
N#C[C@H]1N[C@H](CO)[C@H]1c1ccc(C#CC2CCCC2)cc1,i
O=C(NC(CC1=CCCCC1)c1ccccc1)C(F)(F)F (stereo not drawn),i
C[C@@H]1CN([C@@H](C)CO)C(=O)c2cc(NC(=O)Nc3ccccc3)ccc2O[C@H]1CN(C)C,i
CCc1sc(N2[C@H](C#N)[C@H](c3ccccc3-c3ccc(F)cc3)[C@@H]2CO)nc1C,i
CC(C)C#Cc1ccc([C@H]2[C@@H](CO)N3CCCCN(C(=O)c4ccc5c(c4)OCO5)C[C@H]23)cc1,i
CN(C)C(=O)C[C@@H]1CC[C@H]2[C@@H](COc3ccc(NC(=O)Nc4cccc(Cl)c4)cc3C(=O)N2C)O1,i
CCC(=O)N(C)C[C@H]1Oc2cc(C#CCC(C)C)ccc2S(=O)(=O)N([C@@H](C)CO)C[C@@H]1C,i
CO[C@H]1CN(C)C(=O)c2cc(NS(=O)(=O)CC(F)(F)F)ccc2OC[C@H](C)N(C(=O)c2ccc3c(c2)OCO3)C[C@@H]1C,i
CNC[C@@H]1Oc2c(NC(=O)c3cc(C)nn3C)cccc2C(=O)N([C@@H](C)CO)C[C@H]1C,i
COc1ccc(NC(=O)Nc2ccc3c(c2)CC(=O)N([C@H](C)CO)C[C@H](C)[C@@H](CN(C)S(=O)(=O)c2ccc(Cl)cc2)O3)cc1,i
COc1ccc(S(=O)(=O)N(C)C[C@@H]2Oc3ccc(NC(=O)Nc4ccc5c(c4)OCO5)cc3C(=O)N([C@@H](C)CO)C[C@@H]2C)cc1,i
# (more compounds)
SMILES,FGF22 binding
O=C(Nc1ccccc1)[C@@H]1[C@@H](CO)[C@@H]2Cn3c(cccc3=O)[C@H]1N2Cc1ccncc1,i
O=C(C[C@@H]1C=C[C@@H](NC(=O)c2ccc3c(c2)OCO3)[C@H](CO)O1)NCc1ccc(F)cc1,i
C[C@H](CO)N1C[C@H](C)[C@H](CN(C)Cc2ccc(C(F)(F)F)cc2)Oc2ccc(NC(=O)CCCN(C)C)cc2C1=O,i
Cc1ccc(S(=O)(=O)N[C@H]2CC[C@H](CCn3cc(C4CCCCC4)nn3)O[C@H]2CO)cc1,i
O=C(C[C@H]1C=C[C@@H](NC(=O)CN2CCOCC2)[C@@H](CO)O1)NCc1cccc(F)c1,i
CCCC(=O)Nc1ccc2c(c1)C(=O)N(C)C[C@@H](OC)[C@@H](C)CN(CCC)[C@H](C)CO2,i
C[C@@H]1CN([C@H](C)CO)S(=O)(=O)c2ccc(-c3cccc(F)c3)cc2O[C@H]1CN(C)C(=O)c1cccc(F)c1,i
O=S(=O)(c1cccc(F)c1)N1CC[C@@H]2[C@H](CO)Nc3ccc(C#Cc4ccccc4F)cc3[C@@H]21,i
O=C(C1CCCCC1)N1CC2(C1)[C@@H](c1ccccc1)[C@H](CO)N2C(=O)c1cccnc1,i
CCNC(=O)C[C@H]1CC[C@@H]2[C@@H](COc3ccc(NC(=O)Nc4ccccc4F)cc3C(=O)N2C)O1,i

# Not all compounds are listed; the hit share may differ from the screen's.
